# Screens from PubChem BioAssay.
# RanGTP-Imp inh: inhibitors of RanGTP-importin-beta interaction, primary screen, biochemical, FRET, CFP-Ran, YFP-importin-beta, homogeneous; Ran GTPase (GTP-bound) - importin-beta complex; cell-free CFP-Ran/YFP-importin-beta FRET ratio; inhibition, % (concentration not given with the values); hit rate 1.1% among 300,000; AID 2216, 2009;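 active = most replicates above 15%; inconclusive = exactly half above 15%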;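 also: 0% = DMSO wells and 100% = Ran loaded with GDP instead of GTP; wells of about 40 µL received 100 nL stock; the first replicate is given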
# AF4-AF9 inh: inhibitors of AF4 peptide binding to AF9, primary screen, biochemical, AlphaScreen, biotin-AF4 peptide, FLAG-AF9, single point | Protein AF-9 (Homo sapiens), P42568 | inhibition, % at 10 µM | hit rate 0.47% among 350,000 | AID 651704, 2012;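 active = every replicate reaching a set inhibition limit, whatever the replicate mean, cut at about 25% in these data; inconclusive = mean inhibition reaches that limit but some replicates miss it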;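 also: 0% = plate neutral control median and 100% = total signal loss; the record names both 10 and 1 µM as test concentration; the first replicate is given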
# Ecoli growth: E. coli growth inhibition, primary screen, OD600. Escherichia coli growth, 23 h; hits give low values. OD600 absorbance (no concentration beside the values). AID 1053175, 2014. hit rate 0.21% among 330,000;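 active = OD600 absorbance below the run mean of sample wells minus 3.6 SD, in any replicate, cut at about 0.56 in these data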;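 also: stock transfer was 300 nL into about 60 µL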
# UCH37 inh: inhibitors of human UCH37 deubiquitinase, primary screen, biochemical, Ub-AMC cleavage, fluorescence | inhibition, % (concentration not given with the values) | Ubiquitin carboxyl-terminal hydrolase isozyme L5 (Homo sapiens), Q9Y5K5 | AID 588478, 2011 | hit rate 0.33% among 330,000 | purified proteasome/UCH37;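 active = mean of two replicates above 20%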;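 also: 0% = compound-free wells with enzyme and 100% = wells lacking proteasome; stock transfer was 100 nL into about 20 µL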
# Target sequence (Q9Y5K5 whole entry, looked up): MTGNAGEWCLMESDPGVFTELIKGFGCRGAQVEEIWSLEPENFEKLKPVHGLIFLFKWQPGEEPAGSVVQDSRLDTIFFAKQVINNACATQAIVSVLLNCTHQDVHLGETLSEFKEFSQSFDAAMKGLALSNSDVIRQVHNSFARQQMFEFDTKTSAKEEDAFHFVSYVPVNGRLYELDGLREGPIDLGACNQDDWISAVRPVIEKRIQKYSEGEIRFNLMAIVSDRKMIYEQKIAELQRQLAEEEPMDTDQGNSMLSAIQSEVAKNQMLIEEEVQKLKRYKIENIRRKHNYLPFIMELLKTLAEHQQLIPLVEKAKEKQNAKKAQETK
#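 Assay system: Proteasome-bound UCH37. Buffer or medium: pH 7.4 Tris-HCl (50 mM) with ovalbumin, ATP-MgCl2, DTT. Incubation: 30 min preincubation with enzyme, 25 min cleavage at room temperature. Measured by: fluorescence, ex 355 nm, em 460 nm. Read-out basis: percent inhibition. Control set: wells without proteasome as full block, compound-free enzyme plus substrate as uninhibited.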
# FGF22 binding: binders of human FGF22 protein, primary screen, FGF22 synaptogenesis inhibitor project, biophysical, thermal shift, single point | hit rate 1.5% among 340,000 | recombinant FGF22 thermal shift, SYPRO orange fluorescence; percent of sucrose octasulfate shift, DMSO zero | Fibroblast growth factor 22 (Homo sapiens), Q9HCT0 | calls only at 9.99 µM;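 active = melting point raised past a set limit in the mean and every replicate; inconclusive = no clear call; three in four hits are not shown here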
# Target sequence (Q9HCT0 whole entry, looked up): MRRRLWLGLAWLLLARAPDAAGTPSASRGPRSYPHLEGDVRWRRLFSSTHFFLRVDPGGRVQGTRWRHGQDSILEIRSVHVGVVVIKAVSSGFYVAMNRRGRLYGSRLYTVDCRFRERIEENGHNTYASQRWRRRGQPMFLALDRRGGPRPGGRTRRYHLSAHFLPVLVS
# Vif A3G: inhibitors of Vif binding to APOBEC3G peptide, primary screen, biochemical, TR-FRET, GST-Vif 1-94, biotin-A3G peptide, dose response retest (AID 1117319) | Virion infectivity factor (Human immunodeficiency virus type 1 group M subtype B (isolate … | TR-FRET GST-Vif / biotin-A3G peptide binding; higher % means a stronger effect; test concentration not given here; strong numbers were not always called active | inhibition, %, or IC50 in µM where a hit was titrated | hit rate 0.57% among 260,000;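 active = above the screen mean plus three standard deviations and confirmed in dose response; inconclusive = results disagree or hit not tested in dose response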;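 also: Vif residues 1-94 fused to GST binding biotinylated APOBEC3G peptide 110-148; 0% = full assay without inhibitor and 100% = GST in place of GST-Vif; retest series ran down from 100 µM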
# HNF4A DNA FP: change in binding of human HNF4A to DNA, primary screen, biochemical, fluorescence polarization, FITC-DNA; Hepatocyte nuclear factor 4-alpha (Homo sapiens), P41235; 1 h; hit rate 0.3% among 360,000; activity change, % at 10 µM; in the data active = activity change above about 30%, passing the limit was not always enough;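 also: controls were the assay level and a saturating level of protein; the project sought stronger binding though the title names inhibitors; some compounds called inactive have numbers as strong as hits; positive values seem to mean higher polarization but the record does not say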
# Target sequence (P41235 whole entry, looked up): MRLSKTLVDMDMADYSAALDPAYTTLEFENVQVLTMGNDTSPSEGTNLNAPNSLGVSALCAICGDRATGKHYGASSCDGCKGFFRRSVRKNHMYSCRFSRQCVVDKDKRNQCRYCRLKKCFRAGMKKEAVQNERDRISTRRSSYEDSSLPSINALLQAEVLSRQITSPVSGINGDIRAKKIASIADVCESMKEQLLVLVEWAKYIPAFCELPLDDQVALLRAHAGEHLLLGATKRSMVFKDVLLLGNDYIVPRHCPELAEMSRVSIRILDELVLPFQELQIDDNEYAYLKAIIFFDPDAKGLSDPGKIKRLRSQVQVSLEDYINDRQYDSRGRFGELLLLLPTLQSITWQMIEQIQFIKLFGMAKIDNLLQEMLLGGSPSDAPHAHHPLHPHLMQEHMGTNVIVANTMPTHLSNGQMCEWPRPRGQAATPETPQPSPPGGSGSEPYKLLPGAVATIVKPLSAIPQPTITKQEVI
# * hit, by the source's call; i = inactive; u = inconclusive; x = no result given; & = joins results of further samples. Not all compounds are listed (hit frequency here may not be typical).
SMILES,RanGTP-Imp inh,AF4-AF9 inh,Ecoli growth,UCH37 inh,FGF22 binding,Vif A3G,HNF4A DNA FP
O=C(CCC(=O)c1ccccc1)Nc1cccnc1,-2.7,x,0.68,3.0,x,1%,0.0
CCN(CC)C(C)C(=O)Nc1c2c(cc3c1CCC3)CCC2 (stereo not given),2.8,x,0.67,-0.1,x,24%,0.3
CC(=O)c1ccc(N(C(=O)CNC(=O)c2ccco2)C(C(=O)NC2CCCC2)c2ccco2)cc1 (stereo not given),3.8,-0.6,0.66,1.2,i,4%,-1.4
CCc1ccc(-c2nn(-c3ccccc3)cc2CSC(=N)N)cc1,4.9,x,0.2*,9.8,x,1%,x
COc1ccc(-n2c(SCC(=O)Nc3cccc4ccccc34)nc(O)cc2=O)cc1,-2.8,0.3,0.64,1.9,i,24%,-0.2
CCOc1ccc(N(CC(=O)N2CCCCCC2)S(=O)(=O)c2ccc(C)cc2)cc1,-1.3,-0.3,x,x,i,5%,1.9
CCOC(=O)c1cn(CC(=O)Nc2ccc(OC)cc2OC)nn1,2.1,-1.4,0.71,-0.4,i,1%,4.4
O=C(C1c2ccccc2Oc2ccccc21)N1CCN(c2ccc(Cl)cc2)CC1,x,x,0.76,-1.1,x,u,0.3
CCOC(=O)c1cccc(NC(=O)C2CCCN(S(=O)(=O)c3cnc[nH]3)C2)c1 (stereo not given),4.6,-0.2,0.71,4.6,i,12%,2.4
CCCCC1CCCC12NC(=O)NC2=O (stereo not given),2.0,-11,0.68,0.7,i,x,2.1
COC(=O)CNC(=O)C1Nc2ccccc2C2C=CCC12 (stereo not given),2.4,6.2,0.69,1.4,i,x,-16
Clc1ccccc1-c1ccc(CN2CCN(c3ccccc3)CC2)o1,2.1,x,0.71,-1.7,x,1%,3.1
CCOC(=O)N1CCN(C(=O)c2cccc(S(=O)(=O)Nc3ccc(F)cc3)c2)CC1,x,-5.3,0.66,1.5,i,-6%,0.7
COc1ccc(/C=C2\Oc3ccccc3C2=O)cc1,x,0.8,x,-64,i,x,2.1
Cc1cc(S(=O)(=O)N2c3ccc(F)cc3CCC2C)ccc1-n1cnnn1 (stereo not given),4.4,2.4,0.64,0.9,i,x,-0.6
Cc1nn(C)c(C)c1C(C)NC(=O)c1cc(COc2ccc(F)c(F)c2)on1 (stereo not given),-0.1,-13,0.67,-0.6,x,x,-0.5
Cc1ccc(-c2nn3c(C)nnc3c3ccccc23)cc1S(=O)(=O)NC(C)(C)CO,-3.1,-2.9,0.65,-4.2,i,x,1.4
Cc1cccc(N2CCN(C(=O)COc3cc4oc(=O)cc(C)c4cc3Cl)CC2)c1C,-2.5,-2.4,0.69,-1.1,i,-1%,0.0
CC(C)Cn1c(=O)c2ccccc2n2c(SCC(=O)N3c4ccccc4CC3C)nnc12 (stereo not given),2.2,x,0.69,-2.8,x,x,-2.8
CCC(=O)c1ccc(OCC(O)CN2CC(C)OC(C)C2)cc1 (stereo not given),u,x,0.72,0.0,x,-1%,-3.1
COC1CC(N)C2OC(c3ccccc3)OCC2O1 (stereo not given),x,-0.8,x,x,i,2%,0.8
N#CCSc1nc2ccccc2c(=O)n1-c1ccccc1,-0.1,x,0.66,1.7,x,1%,2.1
O=C(Nc1ccc(N2CCOCC2)cc1)c1ccncc1,-2.7,x,0.76,1.6,x,8%,-1.0
Cc1ccccc1CSCCC(=O)NCCc1ccccc1,-0.2,-2.1,0.71,4.4,i,-1%,-1.6
Cc1ccc(NC(=O)Nc2ccc3c(c2)OCO3)c(Br)c1,5.4,0.2,0.7,3.2,i,x,-0.3
Cc1ccc(S(=O)(=O)n2cc(C=O)c3ccccc32)cc1,0.7,-9.0,0.66,2.5,i,3%,1.5
C=CCN(C1CCCCC1)S(=O)(=O)c1ccc2c(c1)oc(=O)n2C,2.6,0.9,0.75,5.1,i,2%,-1.7
CCOc1ccc(C(=O)NNC(=O)CCNC(=O)c2ccc(Br)cc2)cc1OC,x,-9.8,0.69,0.6,i,0%,-0.1
Cc1cc(=O)oc2c3c(cc(OCC(=O)N[C@H](C(=O)O)c4ccccc4)c12)OC(C)(C)CC3,3.5,1.8,0.77,i,i,x,-0.4
COc1ccccc1CN1CC(C(=O)N(C)Cc2ccc(C)o2)CCC1=O (stereo not given),3.4,-0.4,0.69,1.6,i,x,18
Cc1ccc(C(=O)c2ccccc2C(=O)O)cc1C,-4.0,-1.9,0.7,4.2,i,13%,-7.2
CC1(C)C(=O)Nc2ccccc2N1C(=O)COC(=O)COc1ccc(C#N)cc1,-1.4,-1.9,0.73,-1.2,i,12%,-0.3
COc1ccc(O)c(C(=O)c2cnn(C(=O)c3cccc(S(=O)(=O)N(C)C)c3)c2)c1,x,-6.7,0.72,-9.2,i,2%,8.9
O=C(O)c1cc(-c2ccc3c(c2)OCO3)nc2ccc(Br)cc12,u,-0.6,0.64,-2.7,i,-82%,-5.4
CC(C)C(=O)NC(c1cccc([N+](=O)[O-])c1)c1c(O)ccc2ccccc12 (stereo not given),-5.4,0.9,0.71,0.6,i,-1%,-0.2
CCc1ccc(C(=O)COC(=O)c2ccco2)cc1,-1.5,-0.8,0.7,-2.0,i,-1%,-3.9
O=C1NC(c2ccccc2OC(F)F)Oc2ccccc21 (stereo not given),u,1.2,0.71,3.3,i,2%,-0.3
O=C(OCCCCOC(=O)c1ccccc1)c1ccccc1,4.5,-3.4,0.57,2.3,i,30%,-1.7
C#CCOCCOCCOCCNc1nc(N2CCN(C(=O)C(Cc3cc4ccccc4[nH]3)n3cc(C(N)Cc4ccc(O)cc4)nn3)CC2)nc(N2CCN(C(=O)C(CCC(=O)O)n3cc(C(N)C(C)CC)nn3)CC2)n1 (stereo not given),x,9.5,0.71,-0.1,i,x,-6.8
Cc1cccc(C(=O)NCC(c2ccc(F)cc2)N2CCOCC2)c1 (stereo not given),1.2,-1.9,0.68,2.6,i,2%,1.2
Cn1c(=O)c2c(ncn2CC(=O)OCCCC(=O)c2ccc(Br)cc2)n(C)c1=O,x,-2.6,0.65,-0.2,i,-6%,-0.6
COc1ccc(CC2(CO)CCN(Cc3cccn3-c3ccccn3)CC2)cc1,-0.9,6.5,0.65,2.6,i,4%,0.1
COc1ccccc1N(CC(=O)NCc1ccccc1)S(=O)(=O)c1cccs1,x,-5.2,x,x,i,x,6.7
COc1ccccc1-c1cc(C(F)(F)F)c(C#N)c(=O)[nH]1,0.3,-2.9,0.66,-453,i,12%,-2.5
COC(=O)c1sccc1N/N=C/c1cccc(Oc2ccccc2)c1,1.3,1.7,x,x,i,-3%,1.3
CC(=O)Nc1c(C(=O)c2ccc(F)cc2)oc2ccccc12,-4.1,x,0.69,-4.7,x,13%,-3.8
CNC(=O)CCCCCNS(=O)(=O)c1ccc(C)cc1,-1.5,x,0.74,1.0,x,26%,-1.1
COc1ccc(-c2nc(SCC(=O)NC3CCCC3)c(-c3ccc(OC)cc3)[nH]2)cc1,0.5,10,0.72,1.1,i,x,1.4
CCOC(=O)N1CCN(C(=O)COC(=O)c2cc(Cl)c(O)c(Cl)c2)CC1,0.4,-3.2,0.72,-1.7,i,4%,-1.1
COc1ccc(CNC(=O)N2CCc3ccccc3C2)cc1Cl,-0.3,-3.1,0.7,5.6,i,1%,5.8
CN1CCN(C(=O)c2cc3c(c(-c4cccc(C#CC(C)(C)O)c4)n2)[C@@H](CCO)N(S(=O)C(C)(C)C)C3)CC1 (stereo not given in full),x,1.5,x,x,i,x,3.0
COc1ccc(C)cc1Nc1cc(C)nc2ncnn12,-1.0,-4.2,0.7,3.8,i,-4%,1.3
O=C(CCCn1c(=S)[nH]c2cc3c(cc2c1=O)OCO3)NCc1ccco1,2.5,-1.9,0.71,3.8,i,x,-4.4
NC(=O)C(c1ccc(Cl)cc1)c1ccc(Sc2ccc(Cl)cc2)nn1 (stereo not given),-1.9,x,0.63,-0.8,x,-4%,-0.3
c1ccc(NNC2=NCCCCC2)cc1,0.7,2.3,x,x,i,-5%,0.1
C=C(C)CNC(=S)NN=C1c2ccccc2-c2ccccc21,4.0,x,0.7,5.3,x,x,3.6
COc1cccc2cc(NC(=O)C3CCCCC3)c(=O)oc12,0.0,x,0.78,-39,x,-1%,4.0
CC1CN(Cc2ccccc2Cl)CC(C)O1 (stereo not given),0.1,-6.9,0.71,3.4,i,0%,-2.3
C/C(N)=C(/C#N)C(=O)CSc1nnc(COc2ccccc2Cl)o1,1.0,-7.7,0.7&0.74,3.6&3.2,i,10%&29%,2.8&-3.5
C/C(=N\N1CCN(C2c3ccccc3-c3ccccc32)CC1)c1ccncc1,1.2,x,x,x,x,-2%,-1.5

# Compound profiles, from the list above. Order of screens: RanGTP-Imp inh	AF4-AF9 inh	Ecoli growth	UCH37 inh	FGF22 binding	Vif A3G	HNF4A DNA FP
# NC(=O)C(c1ccc(Cl)cc1)c1ccc(Sc2ccc(Cl)cc2)nn1 (stereo not given) is listed with -1.9	x	0.63	-0.8	x	-4%	-0.3
# CC(=O)Nc1c(C(=O)c2ccc(F)cc2)oc2ccccc12 is listed with -4.1	x	0.69	-4.7	x	13%	-3.8
# CCOC(=O)N1CCN(C(=O)COC(=O)c2cc(Cl)c(O)c(Cl)c2)CC1 is listed with 0.4	-3.2	0.72	-1.7	i	4%	-1.1
# COc1ccc(C)cc1Nc1cc(C)nc2ncnn12 is listed with -1.0	-4.2	0.7	3.8	i	-4%	1.3

# Next compounds
SMILES,RanGTP-Imp inh,AF4-AF9 inh,Ecoli growth,UCH37 inh,FGF22 binding,Vif A3G,HNF4A DNA FP
COc1ccc(C(=O)COC(=O)C(C(C)C)N2C(=O)C3C4C=CC(C4)C3C2=O)cc1 (stereo not given),2.1,x,0.73,6.7,x,u,1.7
COc1ccc(C(=O)O/N=C(\N)c2ccccc2Cl)cc1OC,-2.9,-2.3,0.69,4.0,i,5%,0.8
COc1ccc(C(=O)Nc2scc(-c3ccc(Cl)cc3Cl)c2C(N)=O)cc1,2.8,x,0.72,-31,x,-118%,3.5
O=C(Nc1nnc(SCc2ccc(F)cc2)s1)C1CC(=O)N(c2ccc3c(c2)OCCO3)C1 (stereo not given),-0.9,x,0.71,3.9,x,4%,-2.1
Cc1nnsc1C(=O)NNc1ccc(Cl)cc1,1.2,-3.3,0.67,3.4,i,19%,1.9
COc1ccc(C2CCCN2C(=S)Nc2c(C)cccc2C)cc1OC (stereo not given),1.6,-10.0,0.7,2.5,i,4%,-5.9
COc1ccc(C2/C=C\CN(C(=O)OCc3ccccc3)CC(=O)N2Cc2ccc(F)cc2)cc1 (stereo not given),0.3,2.2,x,-0.1,i,x,-1.0
CC(=O)Nc1cccc(C(=O)/C=C/c2ccc(F)cc2)c1,u,4.4,0.65,3.2,i,x,2.9
OC(COCc1ccco1)CN1CCN(C(c2ccccc2)c2ccccc2)CC1 (stereo not given),u,x,0.68,2.9,x,10%,3.7
C[C@H]1CN([C@@H](C)CO)C(=O)c2cc(Br)cnc2O[C@H]1CN(C)C(=O)c1cnccn1,x,-2.3&-2.2,x,x,i,-5%,-1.4
